PV pol inh: inhibitors of poliovirus RNA polymerase binding and polymerization; % elongation, % (compound at 16.7 µg/mL); 0.66% of 150,000 active; AID 588519; P03300; poliovirus polymerase elongation, fluorescence polarization; active compounds read low; in the data active means % elongation below about 90%; further: some results filed as inactive read as strong as hits
Target sequence (P03300 1749-2209 limits assumed): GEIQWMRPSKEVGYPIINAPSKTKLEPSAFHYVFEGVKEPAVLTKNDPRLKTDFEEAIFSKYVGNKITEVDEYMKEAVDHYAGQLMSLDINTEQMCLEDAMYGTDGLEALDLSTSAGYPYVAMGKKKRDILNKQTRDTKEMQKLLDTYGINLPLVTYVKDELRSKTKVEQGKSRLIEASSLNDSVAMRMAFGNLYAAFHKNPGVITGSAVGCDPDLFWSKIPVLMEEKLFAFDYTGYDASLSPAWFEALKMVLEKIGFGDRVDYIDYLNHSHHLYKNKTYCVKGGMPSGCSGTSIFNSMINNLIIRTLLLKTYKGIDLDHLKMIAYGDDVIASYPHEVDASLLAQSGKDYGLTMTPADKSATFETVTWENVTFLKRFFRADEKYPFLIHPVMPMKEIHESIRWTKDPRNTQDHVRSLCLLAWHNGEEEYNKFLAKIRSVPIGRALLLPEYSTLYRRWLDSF
PV pol inh intensity: recorded beside PV pol inh, whose call it bears; % elongation; measured here: total intensity read-out; formula for this scale not given here;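 total fluorescence in place of polarization; lower means less elongation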
* marks the source's active call; other numbers are inactive results. Only part of the results is shown; count on the stated rates, not on these rows.

SMILES | PV pol inh | PV pol inh intensity
CCCCOc1ccc(Cn2c(=O)sc3ccccc32)cc1OC | 108 | 108
Cc1ccc(/C=C/c2nc3ccccc3[nH]2)cc1 | 109 | 114
COc1ccc(CNc2nc(-c3ccccc3)nn2S(=O)(=O)c2ccccc2)cc1 | 101 | 99
O=C(Cn1c(=O)n(Cc2ccc3c(c2)OCO3)c(=O)c2ccc(C(=O)NC3CCCCC3)cc21)Nc1ccccc1F | 110 | 114
O=C(NCc1cccc(F)c1)c1ccccc1NC(=O)c1nsc2ccccc12 | 105 | 97
Cc1scc(CN2CCN(c3ccccc3F)CC2)c1C | 112 | 111
Cc1ccc(CNC(=O)CSc2c3c(nc4ccc(Cl)cc24)CCCC3)cc1 | 102 | 105
Cc1ccc(CNC(=O)CN2N=C(c3ccc(C)cc3)CCC2=O)cc1 | 113 | 115
O=C(c1cc(-c2ccccc2O)on1)N1CCCCC1 | 107 | 112
O=C(Nc1ccc(C(=O)N2CCN(c3ccccc3F)CC2)cc1)c1nsc2ccccc12 | 111 | 117
CC(CNC(=O)CCS(=O)(=O)c1cc2c(cc1Cl)NC(=O)CO2)c1ccccc1 (centres undefined) | 111 | 114
Cc1ccc(CNc2ncnc3c2cnn3-c2ccc(C)cc2C)cc1 | 102 | 102
O=C(Nc1ccc(F)c(Cl)c1)C1CCCN1S(=O)(=O)c1ccc(F)cc1 (centres undefined) | 103 | 102
COc1ccc(C)cc1NC(=O)c1ccc2c(c1)N(Cc1cccc(Cl)c1)C(=O)c1ccccc1S2=O (centres undefined) | 104 | 108
Cc1cc(C)c(OCC(=O)N(Cc2ccc(N(C)C)cc2)CC2CCCO2)c(C)c1 (centres undefined) | 106 | 103
O=C(CSc1oc(-c2ccco2)nc1S(=O)(=O)c1ccc(Br)cc1)c1ccccc1 | 102 | 106
CCc1cccc(C)c1NC(=O)CSc1nnc(N)s1 | 106 | 110
Cc1ccc(Cl)cc1N1CCN(C(=O)Cn2c(-c3cccs3)cc3cc(F)ccc32)CC1 | 112 | 109
COc1ccccc1N1CCN(c2ccc(=O)n(CC(=O)Nc3ccc(F)c(F)c3)n2)CC1 | 103 | 107
CCOc1ccc(NC(=O)CN(c2ccc(CC)cc2)S(=O)(=O)c2c(C)noc2C)cc1 | 104 | 109
COc1ccc(-c2oc3ncn4nc(COc5ccc(Cl)cc5)nc4c3c2-c2ccc(OC)cc2)cc1 | 55* | 62*
COc1ccc(-c2noc(CCC(=O)Nc3ccc(C(F)(F)F)cc3)n2)cc1 | 116 | 115
COc1ccc(CCNC(=O)Cn2ccc3cc(S(=O)(=O)N4CCCCC4)ccc32)cc1OC | 105 | 109
COc1cccc(NC(=O)/C(C#N)=C\c2cn(Cc3ccc(Cl)cc3)c3ccccc23)c1 | 105 | 107
Cc1ccc2c(c1)c1c(c(=O)n(Cc3ccccc3)c(=O)n1CC(=O)Nc1ccccc1C)n2C | 108 | 100
SMILES | PV pol inh | PV pol inh intensity
CC1=C(C(N)=O)C(c2cccc(Br)c2)n2nc(SCc3ccccc3Cl)nc2N1 (centres undefined) | 104 | 107
COCCNC(=O)c1ccc2c(c1)N(Cc1cc(C)ccc1C)C(=O)c1ccccc1S2(=O)=O | 104 | 107
CC(C)(C)OC(=O)N1CCC(c2c(C(=O)Nc3ccc4c(c3)OCCO4)cnn2-c2ccc(F)cc2)CC1 | 102 | 105
COc1cc(OC)c(OC)cc1CN1CCc2nc(N3CCN(c4ncccn4)CC3)ncc2C1 | 102 | 107
Cc1ccc(NC(=O)C(=O)NCC(c2cccnc2)N2CCN(Cc3ccccc3)CC2)cc1F (centres undefined) | 105 | 111
COc1ccc(OC)c(S(=O)(=O)N2Cc3ccccc3CC2C(=O)Nc2ccc(C(C)=O)cc2)c1 (centres undefined) | 119 | 115
CCOc1ccc(NC(=O)c2sc3nc4c(c(-c5ccccc5)c3c2N)C(=O)CC(C)(C)C4)cc1 | 107 | 108
Cc1cccc(N2CCN(C(=O)CCn3c(=O)c4cccn4c4cccnc43)CC2)c1C | 102 | 102
CCOC(=O)c1cc(S(=O)(=O)Nc2ccc(OC)c(Cl)c2)[nH]n1 | 105 | 109
O=c1c2sc3ccccc3c2n(Cc2ccc(Cl)cc2)c(=O)n1Cc1ccco1 | 108 | 111
COc1ccc(CNC(=O)c2cc3c(=O)n(Cc4cccnc4)ccc3nc2C)cc1 | 101 | 108
COc1cccc(C(=O)NCCc2csc(-c3cccc(F)c3)n2)c1OC | 110 | 116
COc1ccc(C(=O)Nc2cc(C(C)C)c(O)c(S(=O)(=O)c3ccc(Cl)cc3)c2C)cc1 | 107 | 108
CCCn1cc(S(=O)(=O)c2ccc(C)c(C)c2)c(=O)c2cc(F)c(N3CCCCC3)cc21 | 104 | 94
COc1ccc(C(=O)N2CCC(c3ccncc3)CC2)cc1OC | 107 | 111
COc1ccc(CCNC(=O)c2cc3c(-c4ccccc4F)nn(C)c3s2)c(OC)c1 | 111 | 111
CCN(c1ccccc1)c1ncnc2c1cnn2-c1ccc(OC)cc1 | 105 | 109
Cc1nn(Cc2noc(C(=O)NC(C)c3ccccc3)n2)c(C)c1Br (centres undefined) | 108 | 112
CCCCOc1ccc(C(=O)N(Cc2nc(-c3ccc(Cl)cc3)no2)C(C)C)cc1 | 107 | 114
CCCOc1ccc(CNC(=O)c2cc3oc4ccccc4c3n2C)cc1 | 109 | 107
CCOc1ccc(NC(=O)Cn2cnc3sc(C)c(S(=O)(=O)N4CCN(c5ccccc5OC)CC4)c3c2=O)cc1 | 108 | 113
COc1cc2c(cc1NC(=O)COc1ccc(Br)cc1)oc1ccccc12 | 110 | 113
COc1ccc(CCNC(=O)c2nn(-c3ccc(C)cc3)c(=O)c3c2c2ccccc2n3C)cc1OC | 108 | 107
Cc1nc2nc(SCC(=O)NCCc3ccccc3)nn2c(C)c1Cc1c(F)cccc1Cl | 106 | 106
CCc1cccc(C)c1NC(=O)Nc1csc2c1CCCC2 | 108 | 110

4 records drawn at random from those above:
SMILES | PV pol inh | PV pol inh intensity
COc1cc2c(cc1NC(=O)COc1ccc(Br)cc1)oc1ccccc12 | 110 | 113
CCc1cccc(C)c1NC(=O)Nc1csc2c1CCCC2 | 108 | 110
CCCOc1ccc(CNC(=O)c2cc3oc4ccccc4c3n2C)cc1 | 109 | 107
CC(C)(C)OC(=O)N1CCC(c2c(C(=O)Nc3ccc4c(c3)OCCO4)cnn2-c2ccc(F)cc2)CC1 | 102 | 105

New compounds follow
SMILES | PV pol inh | PV pol inh intensity
COc1ccc2c(C)c(CC(=O)NCCc3ccccc3)c(=O)oc2c1OC | 105 | 106
Cc1ccc(-c2nnc(Nc3ccc(Cl)c(Cl)c3)c3ccccc23)cc1S(=O)(=O)N(C)C | 107 | 112
COc1ccc(-n2nc(C(=O)Nc3cc(C)ccn3)c3c4ccccc4n(C)c3c2=O)cc1Cl | 100 | 101
Cc1cc(C)cc(NC(=O)Cc2c(C(=O)O)c(C)cn2C)c1 | 108 | 113
COc1ccc(Cn2c(=O)c3oc4ccccc4c3n(Cc3ccc(F)cc3)c2=O)cc1 | 110 | 107
COc1ccc(C2=Nc3ccccc3NC(c3cccs3)=N2)cc1 | 101 | 103
O=C(CSc1ccc2nc(-c3ccccc3)cn2n1)Nc1ccccc1C(F)(F)F | 103 | 107
CC(C)c1ccc(CNC(=O)c2ccc(N3CCCC3)c(NC(=O)NCc3ccccc3)c2)cc1 | 103 | 105
Cc1ccc(CCNc2ncnc3onc(-c4ccc(F)cc4)c23)cc1 | 114 | 109
Cc1nc(-c2ccc(S(=O)(=O)N(C)Cc3ccccc3)cc2)co1 | 110 | 110
CCOCCCNC(=O)C1CCN(c2cc(C)nc3c(-c4ccc(Cl)cc4)c(C)nn23)CC1 | 109 | 111
COc1ccccc1CNC(=O)C(NS(=O)(=O)c1cccs1)C(C)C (centres undefined) | 103 | 106
CN(C)CCNC(=O)c1ccc(-c2nn(C)c(=O)c3ccccc23)cc1 | 98 | 108
CCCN1CCN(CCCNC(=O)c2ccc3c(c2)sc2nc(-c4ccc(C)cc4)cn23)CC1 | 103 | 101
CCOC(=O)c1c(C)c(C(=O)NCc2ccc(Cl)cc2)c(C)n1C | 106 | 105
CCCc1cc(=O)[nH]c(SCC(=O)N2CCN(c3ccccc3OC)CC2)n1 | 113 | 109
CC(C)c1ccc(NC(=O)c2cc(S(=O)(=O)N3CCc4ccccc4C3)ccc2F)cc1 | 115 | 109
CCOC(=O)Cc1ccc(NC(=O)Nc2cccc(OCc3cc(=O)n4cc(C)ccc4n3)c2)cc1 | 110 | 116
COc1ccc(NC(=O)c2nc(-c3ccc(C)cc3)n3c2CCCCC3)c(OC)c1 | 109 | 110
O=C(NCc1ccco1)c1ccc2c(c1)N(Cc1cccc(Cl)c1)C(=O)c1ccccc1S2(=O)=O | 113 | 116
CCn1cc(C(=O)NCc2ccc(C)cc2)c(=O)c2cc(S(=O)(=O)N3CCCCCC3)ccc21 | 106 | 115
Cc1ccc(-n2ncc(C(=O)NCCN3CCCC3)c2C2CCN(C(=O)OC(C)(C)C)CC2)cc1 | 114 | 107
Cc1cc(O)c(C(c2ccccc2)N2CCCCC2)c(=O)n1Cc1ccco1 (centres undefined) | 107 | 109
CC(=O)N1CCC(N(C(=O)Nc2c(F)cccc2F)C(C)C)CC1 | 114 | 110
CCOC(=O)c1noc2nc(C)n(Cc3cccc(C#N)c3)c(=O)c12 | 103 | 108

Molecules shown so far containing a CF3 group:
SMILES | PV pol inh | PV pol inh intensity
COc1ccc(-c2noc(CCC(=O)Nc3ccc(C(F)(F)F)cc3)n2)cc1 | 116 | 115
O=C(CSc1ccc2nc(-c3ccccc3)cn2n1)Nc1ccccc1C(F)(F)F | 103 | 107

(more compounds)
SMILES | PV pol inh | PV pol inh intensity
COc1ccc(CCN2C(=O)c3[nH]nc(-c4ccccc4O)c3C2c2ccc(O)c(OC)c2)cc1 (centres undefined) | 114 | 113
O=C(NCCc1ccccc1)c1ccc(Nc2nc3ccccc3n3nnnc23)cc1 | 106 | 109
Cc1ccc(S(=O)(=O)N2CCCc3cc(NC(=O)c4ccc(C(F)(F)F)cc4)ccc32)cc1 | 100 | 104
O=C(CSc1ncc(S(=O)(=O)c2ccc(Br)cc2)c(=O)[nH]1)NCc1ccc(Cl)cc1 | 105 | 109
CC(C)(C)c1ccc(Cn2c(Cc3ccccc3)nc3ccccc32)cc1 | 106 | 106
CCOc1ccc(-n2c(=O)c3c4c(sc3n(CC(=O)NC(C)CC)c2=O)CCC4)cc1 (centres undefined) | 109 | 108
Cc1ccc(N2C(=O)CCSC23C(=O)N(Cc2ccccc2)c2ccccc23)cc1F (centres undefined) | 107 | 112
Cc1cc(NC(=O)CCS(=O)(=O)c2cc(Br)cc3c2N(C(=O)C2CC2)CC3)ccc1Br | 104 | 107
Cc1ccccc1CSc1cn(CCNC(=O)c2cccs2)c2ccccc12 | 102 | 107
Oc1c(C(c2ccc(Cl)cc2)N2CCCC2)sc2nc(-c3ccco3)nn12 (centres undefined) | 111 | 115
COc1ccc(C2c3cc(OC)c(OC)cc3CC(=O)N2c2ccc(C)c(F)c2)cc1 (centres undefined) | 105 | 106
Cc1ccc(O)c(NC(=O)C2=CC(c3ccco3)=NS(=O)(=O)N2C)c1 | 113 | 115
Cc1cccc(C(=O)NNc2ncnc3c2cnn3-c2ccc(C)cc2C)c1 | 107 | 95
COC(=O)C1=C(C)NC(=O)C1(NC(=O)c1ccccc1C)C(F)(F)F (centres undefined) | 103 | 102
COc1cc(NC(=O)CN(C)S(=O)(=O)c2ccc3[nH]c4c(c3c2)CCCC4)cc(OC)c1OC | 104 | 105
Cc1c(C(c2ccc(Br)cc2)c2c(O)c3ccccc3oc2=O)c(=O)n(-c2ccccc2)n1C (centres undefined) | 105 | 103
CCOC(=O)c1c(S(=O)(=O)N2CCCC(C(=O)N3CCN(c4ccccc4)CC3)C2)c(C)n(C)c1C (centres undefined) | 106 | 108
CCc1cccc(NC(=O)c2ccc3c(=O)n4nc(Nc5ccccc5OC)sc4nc3c2)c1 | 98 | 102
COc1ccc(-c2cnc(C)o2)cc1S(=O)(=O)Nc1ccc(C)c(F)c1 | 105 | 112
CCCn1c2ccccc2c2cnn(CC(=O)Nc3ccccc3OC)c(=O)c21 | 106 | 94
COc1ccc(OC)c(NC(=O)C(C)n2c(=O)cc(C)c3c(C)nn(-c4ccccc4)c32)c1 (centres undefined) | 110 | 113
CCC(=O)N1CCc2cc(Br)cc(S(=O)(=O)N3CCC(C(=O)Nc4ccccc4CC)CC3)c21 | 106 | 110
COc1cc2c(cc1OC)n(CC(=O)Nc1ccc(C)cc1C)c(=O)n1nc(-c3ccccc3)nc21 | 103 | 105

Reformatted: three of the compounds above.
Fields – PV pol inh, PV pol inh intensity
- COc1ccc(CCN2C(=O)c3[nH]nc(-c4ccccc4O)c3C2c2ccc(O)c(OC)c2)cc1 (centres undefined)
    114, 113
- O=C(NCCc1ccccc1)c1ccc(Nc2nc3ccccc3n3nnnc23)cc1
    106, 109
- Cc1ccc(S(=O)(=O)N2CCCc3cc(NC(=O)c4ccc(C(F)(F)F)cc4)ccc32)cc1
    100, 104

Bioassay records as filed in PubChem.
